# Bioassay records deposited in PubChem BioAssay by several laboratories.
# CBX7 AlphaScr: inhibitors of human CBX7 binding to H3K27me3 peptide. O95931. normalised signal (fraction of DMSO) (test concentration not listed). actives 1.1% (n = 66,000). AlphaScreen His6-CBX7 / biotin-H3K27me3 peptide binding; active compounds read low. AID 1224903; in the data active = normalised signal below about 0.5;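 also: 100 nL library stock added to about 20 µL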
# Target sequence (O95931 whole entry, looked up): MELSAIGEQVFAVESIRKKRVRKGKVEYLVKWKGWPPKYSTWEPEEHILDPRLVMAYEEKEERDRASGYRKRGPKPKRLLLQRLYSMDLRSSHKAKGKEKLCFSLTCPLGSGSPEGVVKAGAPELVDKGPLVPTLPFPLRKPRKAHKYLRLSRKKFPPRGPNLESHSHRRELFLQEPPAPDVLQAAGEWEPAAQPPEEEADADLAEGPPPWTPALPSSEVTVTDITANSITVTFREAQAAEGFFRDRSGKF
# CBX7 AlphaScr z-score: further read-out of CBX7 AlphaScr, marked with its call; z-score; measured here: z-score of CBX7 signal; some inactives read as strong as hits; reference of the scale not given here;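 same signal on another scale; lower means less binding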
# * hit, by the source's call; & = joins results of further samples. Not all compounds are listed; the hit share may differ from the screen's.
SMILES,CBX7 AlphaScr,CBX7 AlphaScr z-score
CC(=O)Nc1ccccc1-c1nc2ccc(C(=O)NCCC3=CCCCC3)cc2[nH]c1=O,0.982,-0.349
CCOc1ccc(NC(=O)Nc2cccc(C)n2)cc1,1.1,0.114
CCOC(=O)c1cnc2c(OC)cccc2c1N1CCN(CC)CC1,1.05,0.0531
COc1ccc(Cl)cc1Nc1c2c(nc3ccc(Cl)cc13)CCC2,0.902,-0.133
CCOc1ccc(-c2nc(CSCC(=O)NCC(OC)OC)c(C)o2)cc1,0.945,-0.763
Cc1ccc(CCNC(=O)C2C3C(=O)N(Cc4ccccc4)CC34C=CC2(C)O4)cc1 (configuration not stated),1.02,0.0492
O=C(CSc1nnc(CNC(=O)c2cccs2)o1)Nc1ccc(Br)cc1,1.03,0.829
Cc1cccc2sc(NC(=O)c3ccc(CNc4c(NC5CCCC5)c(=O)c4=O)cc3)nc12,1.11,0.898
CC(Oc1ccccc1)C(=O)Nc1c2c(nn1-c1ccc(F)cc1)CSC2 (configuration not stated),1.05,1.43
O=c1cc(N2CCN(c3ccccc3)CC2)[nH]c(=O)n1Cc1ccc(F)cc1,1.09,1.81
CC(=O)Nc1ccc(-c2nc3c(C)cccc3[nH]2)cc1,1.05,1.38
Cc1cc(C)cc(Nc2cc(C(=O)NCCCN3CCOCC3)c3ccccc3n2)c1,1.24,6.85
COc1cc(OC)c(NC(=O)c2csc3c2CCC(C)C3)cc1Cl (configuration not stated),1.07,2.67
CCOc1ccc(CCNC(=O)CN2N=C(c3ccc(Cl)cc3)CCC2=O)cc1OCC,1.06,0.929
O=C1CC(C(=O)NC2CCCCC2)(c2cccc(Br)c2)N1CC1COc2ccccc2O1 (configuration not stated),0.934,-1.43
COc1ccc(-n2nc(C(=O)NCC(=O)Nc3cc(OC)ccc3OC)c3ccccc3c2=O)cc1,0.93,-1.45
CCOc1ccccc1NC(=O)c1c(NC(=O)c2cccnc2)sc2c1CCC(C(C)(C)C)C2 (configuration not stated),1.07,0.84
COc1ccc2cc(CCNC(C)=O)c(=O)[nH]c2c1,1.13,0.83
CC1CCN(C(=O)c2cc(-c3cccc(Cl)c3)on2)CC1,1.24,1.85
CC(C)Cn1c(C2CC(=O)N(c3cccc(C(F)(F)F)c3)C2)nc2ccccc21 (configuration not stated),1.07,0.529
O=C1CC(N2CCN(CCO)CC2)C(=O)N1c1cccc(Cl)c1 (configuration not stated),0.762,-3.29
O=C(NCc1nnc(SCC(=O)N2CCCC2)o1)c1cccs1,1.03,1.44
CCOC(=O)c1c(NC(=O)c2ccc(F)cc2)sc2c1CCCCC2,1.44,17.3
COc1ccccc1CN1C(=O)c2ccccc2C1C(=O)NC1CCCCCCC1 (configuration not stated),0.825,-3.48
COc1ccc(Cl)cc1NC(=O)CNC(=O)Cn1cnc2sc(C)c(C)c2c1=O,1.29,2.78

# Laid out differently: entries from further up.
> O=C1CC(N2CCN(CCO)CC2)C(=O)N1c1cccc(Cl)c1 (configuration not stated)
- CBX7 AlphaScr: 0.762
- CBX7 AlphaScr z-score: -3.29
> CCOc1ccc(NC(=O)Nc2cccc(C)n2)cc1
- CBX7 AlphaScr: 1.1
- CBX7 AlphaScr z-score: 0.114
> CCOC(=O)c1c(NC(=O)c2ccc(F)cc2)sc2c1CCCCC2
- CBX7 AlphaScr: 1.44
- CBX7 AlphaScr z-score: 17.3
> O=C1CC(C(=O)NC2CCCCC2)(c2cccc(Br)c2)N1CC1COc2ccccc2O1 (configuration not stated)
- CBX7 AlphaScr: 0.934
- CBX7 AlphaScr z-score: -1.43

# (continued)
SMILES,CBX7 AlphaScr,CBX7 AlphaScr z-score
CCCCNC(=O)c1cnn2c(C)c(Cc3cc(C)ccc3C)c(C)nc12,0.992,-0.312
CC(C)c1ccc(Nc2nc(CC(=O)O)cs2)cc1,0.833,-0.657
Cc1cc(C)c2c(N)c(-c3nc4ccccc4[nH]3)sc2n1,1.1,2.69
Cc1ccc2c(c1)NC(=O)C(CC(=O)NCCN1CCOCC1)O2 (configuration not stated),1.02,0.773
CCOC(=O)c1cnc2c(C)cccc2c1Nc1ccc(N(C)C)cc1,0.253*,-20.7*
Cc1ccccc1Nc1nc(C(F)(F)F)c(-c2ccc(Cl)cc2)s1,1.03,0.51
CCc1ccc(-c2nc(CSCC(=O)NC(C)(C)C)c(C)o2)cc1,0.766,-4.41
O=C(CN1C(=O)CSc2ccc(S(=O)(=O)N3CCOCC3)cc21)NCCCN1CCCCC1,1.07,1.87
CCc1ccc(-c2csc(Nc3ncccc3C)n2)cc1,0.985,-0.179
CCN(C(=O)Cn1ncc2c1-c1cc(C)ccc1OC2)c1ccc(F)cc1,1.04,1
Cc1onc(-c2ccccc2)c1C(=O)Nc1cccc(Br)c1,1.04,0.882
CN(C)C(C(=O)NC1CCCCC1)c1ccc(Cl)cc1 (configuration not stated),0.984,-0.69
CCOc1ccccc1NC(=O)c1c(NCc2cccs2)sc2c1CCCC2,0.96,-2.05
O=C1CC(NCCc2ccccc2)C(=O)N1c1ccccc1 (configuration not stated),1.01,0.333
Cc1cccc(NC(=O)C2(S(=O)(=O)c3ccc(Cl)cc3)CC2)c1C,1.16,1.99
Cc1cc(C)n(CC(O)COCc2ccco2)n1 (configuration not stated),0.983,-0.265
Cc1ccc2nc(-c3ccc(O)cc3)sc2c1,1.01,0.208
COc1ccccc1CNC(=O)C1CCCN(S(=O)(=O)c2cccs2)C1 (configuration not stated),0.974,-0.993
CCOC(=O)c1ccc(NC2c3ccccc3C(=O)N2c2ccccn2)cc1 (configuration not stated),1.04,1.2
CCN(CCCNS(=O)(=O)c1ccc2c(c1)CCN2C(=O)C1CCC1)c1cccc(C)c1,0.973,-0.745
O=c1[nH]c2ncccc2c(=O)n1CCc1c[nH]c2ccccc12,0.94,-1.36
COc1ccc2c(C)cc(SCC(=O)Nc3nsc(-c4ccc(C)cc4)n3)nc2c1,0.827,-2.23
CCOC(=O)c1cnc2ccc(OCC)cc2c1N1CCN(c2ccccn2)CC1,0.576,-0.477
COC(=O)c1ccccc1NC(=O)COCc1cc(-c2ccc(F)cc2)on1,1.13,1.49
Cc1ccnc(NC(=O)CCCOc2ccc(Cl)cc2Cl)c1,1.01,0.139
O=C(Cn1nc(C(F)F)cc1C1CC1)NCCC1=CCCCC1,0.948,-0.147
O=C(Nc1nc(-c2ccc(F)cc2)cs1)c1ccc(Br)cc1,1.04,0.683
CCOC(=O)c1cnc2cc(-c3ccc(Br)cc3)nn2c1C,0.905,-1.13
O=C(NCCc1ccc(Cl)cc1)c1ccc2c(c1)N(Cc1cccc(Cl)c1)C(=O)CS2,1.06,2.45
COc1ccc(CCNC(=O)CSc2nnc(-c3cccc(F)c3)n2-c2ccccc2)cc1OC,1.11,1.66
COc1ccc(OC)c(NC(=O)CN2C(=O)CC(c3ccccc3)Sc3ccccc32)c1 (configuration not stated),0.72,-4.7
CCn1c(C(O)c2ccccc2OC)nc2ccccc21 (configuration not stated),1.04,0.947
COc1ccc(CN2CCN(Cc3cccc4ccccc34)CC2)cc1OC,0.707,-3.52
COc1ccc(C2CC(=O)NC3=C2C(=O)CC(C)(C)C3)c(OC)c1 (configuration not stated),1.1,1.34
Cc1nn(C)c(C)c1S(=O)(=O)N(CC(=O)Nc1cccc(Cl)c1C)c1ccc(C(C)C)cc1,0.97,-0.567
CN1C(=O)CSc2ccc(NC(=O)NCc3ccc(Cl)cc3)cc21,1.01,0.162
CCOC(=O)N1CCC(Nc2c(N3CCC(N4CCCCC4)CC3)c(=O)c2=O)CC1,1.14,1.62
Cc1ccccc1C(=O)Nc1ccc2oc(-c3ccc(F)cc3Cl)nc2c1,1.02,0.901
Cc1nc2cc(-c3ccccc3)nn2c(C)c1CC(=O)O,0.919,-0.973
c1ccc(Sc2ncnc3nc[nH]c23)nc1,0.973,-1.04
CCN(CC)c1cc(C)c2cc(NC(=O)Cc3ccc(OC)cc3)ccc2n1,1.08,0.829
OCCNc1ncnc2c1c(-c1ccccc1)cn2-c1cccc(Cl)c1,0.921,-2
CC(C)c1ccc(OCC(O)Cn2cnc3ccccc32)cc1 (configuration not stated),0.284*,-13.5*
CN1CCc2c(sc3c2C(=O)NC(c2ccc(-c4ccc(Cl)cc4)o2)N3)C1 (configuration not stated),0.922,-0.855
Cc1cccc(OCCCCn2c(CCCO)nc3ccccc32)c1,0.666,-4.84
O=C(NC1CCCC1)C1CCN(c2nc3ccccc3n2Cc2ccc(F)cc2)CC1,0.782,-2.51
CCOC(=O)c1cnc2c(OC)cccc2c1Nc1cccc(C(F)(F)F)c1,0.977,-0.401
COc1ccc(CCNc2oc(COc3ccc(Br)cc3)nc2C#N)cc1OC,0.915,-0.53
Cc1nc2c(C(=O)N3CCOCC3)cnn2c(C)c1Cc1cccc(Cl)c1,1.03,0.776
CCC(C)NC(=O)CSCc1nc(-c2ccc(C)cc2)oc1C (configuration not stated),0.932,-1.27

# Later entries
SMILES,CBX7 AlphaScr,CBX7 AlphaScr z-score
CC(=O)Nc1nc(C)c(-c2csc(Nc3ccccc3C)n2)s1,0.789&0.694,-3.91&-0.344
COc1cccc(NC(=O)CSc2ccc3nnc(-c4ccccc4)n3n2)c1,0.949,-0.605
CCCN(CCC)CCCNc1ccc2nncn2n1,0.998,-0.055
COc1ccc(-c2nc3ccccc3n2Cc2ccccc2C)cc1,1.04,0.366
CCN(CC)CCCNC(=O)c1ccc2c(c1)N(Cc1ccc(Cl)cc1)C(=O)c1ccccc1S2=O (configuration not stated),1.07,3.12
COc1ccc(C(O)Cc2nc3ccccc3n2Cc2ccc(Br)cc2)cc1 (configuration not stated),1.01,0.352
O=S(=O)(c1cccc(C(F)(F)F)c1)n1c(/C=C/c2ccccc2Cl)nc2ccccc21,1.05,0.94
NC(=O)C1CCCN(c2nc(-c3ccc(F)cc3)cs2)C1 (configuration not stated),0.915,-0.302
Cc1ccc(-c2nc(NC(=O)c3cccc(Oc4ccccc4)c3)sc2-c2ccccc2)cc1,1.06,2.26
Cc1noc(C)c1S(=O)(=O)NCCCN1CCN(c2cccc(Cl)c2)CC1,0.969,-1.61
CCOc1ccc2nc(N3CCC(C(=O)NCc4ccc(Cl)cc4)CC3)sc2c1,1.04,0.183
Cc1sc2ncn(CC(=O)NCCCC(=O)Nc3ccc(F)c(Cl)c3)c(=O)c2c1C,1.39,4.4
COc1ccccc1NC(=O)c1c(NCc2ccc(N(C)C)cc2)sc2c1CCC2,0.818,-1.96
Cc1cccc(N2CCN(C(=O)C(NS(=O)(=O)c3cccs3)C(C)C)CC2C)c1 (configuration not stated),0.835,-3.26
O=C(NCCc1ccc(Cl)cc1)c1nnc(Cc2ccc(Cl)cc2)o1,1.07,2.34
CC(C)Oc1ccc(-c2cc(C(=O)Nc3ccc(S(N)(=O)=O)cc3)c3ccccc3n2)cc1,1.02,0.727
CC(C)OC(=O)CSc1nnc(-c2ccccc2Cl)o1,1.13,0.44
O=C(C1CCCN(c2nnc(-n3cccc3)s2)C1)N1CCN(c2ccccc2)CC1 (configuration not stated),1.07,1.5
CCOc1ccc(NC(=O)c2sc3ncn(CC(=O)N4CCCCC4C)c(=O)c3c2C)cc1 (configuration not stated),1.02,0.152
Clc1ccc2nc(-c3ccccn3)c(Nc3ccccc3)n2c1,0.591,-0.71
CCc1ccc(NC(=O)N(CCN2CCOCC2)Cc2ccc3c(c2)CCCN3CC)cc1,0.57,-11.9
O=c1cc(N2CCc3ccccc3C2)[nH]c(=O)n1-c1ccc(Br)cc1,1.1,1.6
CC(C)CCNC(=O)c1ccc2c(c1)NC(=O)C1CCCN21 (configuration not stated),1.11,0.431
COCCCNC(=O)c1ccc2c(c1)N(Cc1ccc(Cl)cc1)CCS2,0.869,-2.01
Cc1oc(-c2ccc(Cl)cc2)nc1CN1CCC(C(=O)NC2CCCCC2)CC1,0.805,-1.99
CCc1ccc(NC(=O)CSc2nccn2-c2cccc(Cl)c2)cc1,0.431*,-2.01*
CNS(=O)(=O)c1cc(-c2nn(C)c(=O)c3ccccc23)ccc1C,1.24,0.859
COc1ccc(NC(=O)Cn2ncc3c2-c2ccccc2OC3)c(OC)c1,0.895,-1.5
Cc1ccc(S(=O)(=O)CCc2nnc(NC(=O)c3ccc(Cl)cc3)s2)cc1,1.02,1.03
CCOC(=O)c1c[nH]c2ccc(CC)cc2c1=O,0.81,-2.92
COc1ccc(NC(=O)C(CC(C)C)NS(=O)(=O)c2ccc3nc(C)sc3c2)c(OC)c1 (configuration not stated),0.915,-2.58
CCc1ccc(NC(=O)Cn2c(C(=O)OC)cc3ccsc32)cc1,1.02,0.556
Cc1[nH]c2ccc(-c3nnc(SCCC#N)n3-c3ccccc3)cc2c1C,0.99,-0.276
COc1cccc(-c2nc(CSCC(=O)NCc3ccc(Cl)cc3)c(C)o2)c1,1.1,0.933
COc1ccccc1NCC(O)Cn1c2ccc(Br)cc2c2cc(Br)ccc21 (configuration not stated),0.535,-2.92
CCCN(C(=O)c1cn(CC(C)C)c(=O)c2cc(OC)c(OC)cc12)c1cccc(Cl)c1,0.986,-0.585
O=C(CN1C(=O)CCC1=O)Nc1nc(-c2ccc(F)cc2)cs1,1.13,1.1
CCN1CCN(CCCNC(=O)C2CCN(c3nnc(-n4cccc4)s3)CC2)CC1,1.23,2.39
Cc1cc(C)c2nc(N3CCC(C(=O)NCc4ccc(Cl)cc4)CC3)sc2c1,1.15,2.89

# A few values from the entries so far.
# CNS(=O)(=O)c1cc(-c2nn(C)c(=O)c3ccccc23)ccc1C – CBX7 AlphaScr = 1.24
# CCOC(=O)c1c[nH]c2ccc(CC)cc2c1=O – CBX7 AlphaScr z-score = -2.92
